YB-1 expr inh: YB-1 expression inhibition | delta delta Cp (YB-1 minus CDIP) (concentration not given with the values) | actives 0.37% (n = 30,000) | AID 434959 | U2OS, qRT-PCR YB-1 vs CDIP delta delta Cp, 16 h; stronger effect = higher value; zero = DMSO, each unit about twofold;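 active = delta delta Cp rounded down to an integer at or above 3, about 3 SD of DMSO wells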;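 note: higher means less YB-1 transcript or more CDIP transcript relative to DMSO; stock transfer was 100 nL into about 100 µL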
PD-1 reversal: reversal of PD-1 mediated T-cell inhibition. AID 2316. activation, % (test concentration not listed). 29,000 tested, under 10 active. primary human CD4 T cells, PD-L1 beads, CellTiter-Glo 96 h;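 active = replicate mean of 50% or more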;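 note: 0% = median vehicle wells and 100% = positive control; 100 nL library stock added to about 50 µL; numbers are from one replicate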
MITF inh: MITF inhibition | TRPM1 promoter luciferase, luminescence, 24 h | inhibition, % (no concentration beside the values) | actives 0.28% (n = 37,000) | AID 2240;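 active = most replicates at 85% or more, or half of them and the mean; inconclusive = half reach 85% but not the mean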;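 note: human melanocyte line stably carrying TRPM1 promoter luciferase reporter; 0% = vehicle wells and 100% = a positive control; the first replicate is given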
Shh pathway inh: Sonic Hedgehog pathway inhibition; Shh-LIGHT2 Gli-luciferase reporter, 30 h; inhibition, % (no concentration beside the values); actives 2.1% (n = 22,000);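 active = replicate mean of 65% or more; inconclusive = mean lower but half the replicates past it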;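 note: pathway switched on by Shh-conditioned medium diluted 1 in 25 in low serum; 100 nL library stock added to about 40 µL; 0% = median of neutral wells and 100% = positive control level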
An asterisk follows results filed as active; ? = inconclusive; . = no result given. Only part of the results is shown, so the mix of outcomes need not match the whole.

Values run as follows: YB-1 expr inh	PD-1 reversal	MITF inh	Shh pathway inh
C[C@H]1CN([C@@H](C)CO)C(=O)Cc2cc(NC(=O)Nc3cccc4ccccc34)ccc2O[C@@H]1CN(C)C(=O)NC1CCCCC1
  -0.003	.	2	-43
Cc1cccc(-c2nnc(SCC(=O)c3ccccc3)n2-c2ccccc2)c1
  .	-2.2	9	.
CC(=O)OC(C[C@@]1(C)[C@H](C)[C@H](OC(C)=O)C[C@@]23COC(=O)C2=CCC[C@@H]31)c1ccoc1 (stereo partly drawn)
  0.14	.	.	39
C[C@H](CO)N1C[C@H](C)[C@H](CN(C)C(=O)Nc2ccc3c(c2)OCO3)Oc2ccc(N(C)C)cc2CC1=O
  0.069	.	-7	-13
C[C@H](CO)N1C[C@H](C)[C@H](CN(C)S(C)(=O)=O)Oc2c(NC(=O)Nc3ccc4c(c3)OCO4)cccc2C1=O
  -0.46	.	-11	-10
Cc1ccn2cc(-c3cccc(NS(=O)(=O)c4cccc([N+](=O)[O-])c4)c3)nc2c1
  .	1.7	-69	.
C[C@@H]1CN([C@H](C)CO)C(=O)c2cccc(NC(=O)c3cnccn3)c2O[C@H]1CN(C)C(=O)Nc1ccc(F)cc1
  -0.34	2.1	-11	1
COc1ccc(NC(=O)Nc2ccc3c(c2)CC(=O)N([C@H](C)CO)C[C@H](C)[C@H](CN(C)Cc2ccncc2)O3)cc1
  0.27	0.1	5	32
CC(C)CC1NC(=O)C(CC(C)C)N(O[C@@H]2O[C@H](COC(=O)CCC(=O)O)[C@@H](O)[C@H](O)[C@H]2O)C1=O (stereo partly drawn)
  4.9*	-6.1	50	74*
COc1cc(C(=O)NCc2cccnc2)c([N+](=O)[O-])cc1OC
  .	1.7	3	.
C[C@H](CO)N1C[C@H](C)[C@H](CN(C)S(=O)(=O)c2cccs2)Oc2ccc(NC(=O)Cn3cnnn3)cc2C1=O
  0.063	0.0	-8	.
COc1cc(-c2nnc(SCC(=O)c3ccc(Cl)cc3)n2-c2ccccc2)cc(OC)c1OC
  .	-0.9	-3	.
C[C@H](CO)N1C[C@H](C)[C@@H](CN(C)CC2CCCCC2)Oc2c(NC(=O)C3CCCCC3)cccc2C1=O
  0.19	.	35	31
C[C@@H]1CN([C@@H](C)CO)C(=O)c2cccc(NS(=O)(=O)c3ccc(Cl)cc3)c2O[C@@H]1CN(C)S(=O)(=O)c1cccs1
  -0.22	-4.2	10	-46
O=C(Nc1cccc2ccccc12)C1CCCN1S(=O)(=O)c1ccccc1 (stereo not drawn)
  .	-1.3	17	.
C[C@@H]1CN([C@@H](C)CO)C(=O)c2cccc(NC(=O)C3CCCCC3)c2O[C@@H]1CN(C)Cc1ccc2c(c1)OCO2
  0.61	1.7	8	?
C[C@@H]1CN([C@H](C)CO)C(=O)c2cccc(NC(=O)Nc3cccc4ccccc34)c2O[C@@H]1CN(C)C(=O)Nc1ccc(C(F)(F)F)cc1
  -0.11	-4.2	53	2
Cc1cc(C(=O)NCCCn2ccnc2)cs1
  .	0.4	4	.
C[C@@H]1CN([C@H](C)CO)C(=O)c2cccc(NS(=O)(=O)c3cn(C)cn3)c2O[C@H]1CN(C)Cc1ccc2c(c1)OCO2
  -0.048	-0.1	7	-27
C[C@H]1CN([C@@H](C)CO)C(=O)c2cc(NS(=O)(=O)c3cccs3)ccc2O[C@H]1CN(C)Cc1ccc(Cl)c(Cl)c1
  -0.078	-3.9	-15	.
C[C@@H]1CN([C@@H](C)CO)C(=O)c2cccc(NC(=O)Nc3ccc4c(c3)OCO4)c2O[C@H]1CN(C)CC1CCCCC1
  0.46	.	12	-19
COC(=O)C1=C(N)OC2=C(CCCC2=O)C1c1cccnc1 (stereo not drawn)
  0.17	2.9	8	-15
C[C@@H]1CN([C@@H](C)CO)C(=O)c2cc(NC(=O)Cc3ccccc3)ccc2O[C@H]1CN(C)Cc1ccc2c(c1)OCO2
  -0.025	0.2	-1	.
Cc1ccc(S(=O)(=O)Nc2cccc3c2O[C@@H](CN(C)C(=O)Nc2cccc4ccccc24)[C@H](C)CN([C@H](C)CO)C3=O)cc1
  -0.05	0.4	6	16
C[C@@H]1CN([C@H](C)CO)C(=O)Cc2cc(NS(=O)(=O)c3ccc(Cl)cc3)ccc2O[C@H]1CN(C)Cc1ccc2c(c1)OCO2
  0.36	.	14	-14
CC1=NNC(=O)C1Cc1ccccc1 (stereo not drawn)
  -0.27	0.7	12	-14
COc1cc2c(cc1NC(=O)CSc1nnc(N)s1)oc1ccccc12
  .	-2.2	-147	.
COC(=O)C1=CO[C@@H](O[C@@H]2O[C@H](CO)[C@@H](O)[C@H](O)[C@H]2O)[C@H]2[C@@H]1[C@H](OC(=O)/C=C/c1ccc(O)cc1)C[C@]2(C)OC(C)=O
  0.34	0.3	4	-35
CC(NC(=O)Cn1cc(Br)c([N+](=O)[O-])n1)c1ccccc1 (stereo not drawn)
  .	-0.6	-1	.
C[C@@H]1CN([C@H](C)CO)C(=O)Cc2cc(NC(=O)Nc3ccccc3)ccc2O[C@@H]1CN(C)C
  0.29	1.1	-7	44
COc1ccc(NC(=O)N(C)C[C@H]2Oc3c(NC(=O)CCCCCC(=O)Nc4ccccc4N)cccc3C(=O)N([C@@H](C)CO)C[C@H]2C)cc1
  -0.21	0.6	-9	.
C[C@H](CO)N1C[C@H](C)[C@@H](CN(C)Cc2ccc(Cl)c(Cl)c2)Oc2ccc(NC(=O)c3ccncc3)cc2C1=O
  0.02	0.7	-10	.
COc1ccc(S(=O)(=O)N(C)C[C@H]2Oc3c(NC(=O)c4ccc(-c5nccs5)cc4)cccc3C(=O)N([C@H](C)CO)C[C@@H]2C)cc1
  -0.24	.	1	33
CC1CC(=O)c2cc(O)c(O)cc2C1 (stereo not drawn)
  0.032	-1.0	16	4
C[C@@H]1CN([C@H](C)CO)C(=O)Cc2cc(N(C)C)ccc2O[C@H]1CN(C)S(=O)(=O)c1ccc(Cl)cc1
  -0.25	.	0	0
Cc1cc(C(=O)Nc2cccc3c2O[C@H](CN(C)C(=O)NC(C)C)[C@@H](C)CN([C@H](C)CO)C3=O)n(C)n1
  -0.003	1.0	-5	1
COc1cc(CO)cc(I)c1OCc1cccc([N+](=O)[O-])c1
  .	-0.1	-13	.
Cc1noc(C)c1NC(=O)Nc1cccc2c1O[C@@H](CN(C)S(C)(=O)=O)[C@@H](C)CN([C@@H](C)CO)C2=O
  -0.1	-3.3	34	-18
COc1ccc(S(=O)(=O)N(C)CC(=O)Nc2cc(Cl)ccc2OC)cc1C
  .	2.0	7	.
C[C@@H]1CN([C@H](C)CO)C(=O)c2cc(NS(=O)(=O)c3ccc(F)cc3)ccc2O[C@H]1CN(C)Cc1ccc(Oc2ccccc2)cc1
  -0.19	.	17	.
COc1ccc(S(=O)(=O)N(C)C[C@@H]2Oc3c(NC(=O)NC(C)C)cccc3C(=O)N([C@@H](C)CO)C[C@H]2C)cc1
  -0.34	2.0	4	-4
CCn1c(SCC(=O)N2CCc3ccccc32)nnc1-c1ccco1
  .	-1.9	6	.
C[C@@H]1CN([C@@H](C)CO)C(=O)c2cccc(NC(=O)Nc3ccccc3)c2O[C@H]1CN(C)C(=O)Nc1ccc(C(F)(F)F)cc1
  0.23	-2.0	0	31
O=C1C(=O)N(Cc2ccco2)C(c2cccc(O)c2)C1C(=O)c1ccco1 (stereo not drawn)
  .	3.5	-11	.
C[C@@H]1CN([C@@H](C)CO)C(=O)c2cc(NC(=O)Nc3ccc(F)cc3)ccc2O[C@@H]1CN(C)S(=O)(=O)c1ccc(F)cc1
  0.15	0.3	33	12

One compound at a time, from the list above:
COc1ccc(NC(=O)N(C)C[C@H]2Oc3c(NC(=O)CCCCCC(=O)Nc4ccccc4N)cccc3C(=O)N([C@@H](C)CO)C[C@H]2C)cc1 as listed: YB-1 expr inh: -0.21; PD-1 reversal: 0.6; MITF inh: -9; Shh pathway inh: .
CCn1c(SCC(=O)N2CCc3ccccc32)nnc1-c1ccco1 as listed: YB-1 expr inh: .; PD-1 reversal: -1.9; MITF inh: 6; Shh pathway inh: .
CC1CC(=O)c2cc(O)c(O)cc2C1 (stereo not drawn) as listed: YB-1 expr inh: 0.032; PD-1 reversal: -1.0; MITF inh: 16; Shh pathway inh: 4

(next part)
Values run as follows: YB-1 expr inh	PD-1 reversal	MITF inh	Shh pathway inh
C[C@@H]1CN([C@H](C)CO)C(=O)c2cc(NS(=O)(=O)c3ccc(Cl)cc3)ccc2O[C@@H]1CN(C)C(=O)NC1CCCCC1
  -0.085	-1.4	1	21
O=c1c(-c2ccc(O)cc2)coc2cc(O)cc(O)c12
  -0.18	.	-3	-28
CCN1C(=O)C(=Cc2c(O)n(CC)c(=O)n(CC)c2=O)C(=O)N(CC)C1=O
  0.15	-0.7	-11	27
C[C@H]1CN([C@@H](C)CO)C(=O)c2cccc(NC(=O)NC3CCCCC3)c2O[C@H]1CN(C)Cc1ccc(C(F)(F)F)cc1
  1.1	0.0	10	16
C[C@@H]1CCCCO[C@@H](CN(C)S(C)(=O)=O)[C@@H](C)CN([C@H](C)CO)C(=O)c2cc(NC(=O)C3CCCCC3)ccc2O1
  -0.34	0.1	2	.
C[C@@H]1CCCCO[C@H](CN(C)Cc2ccc3c(c2)OCO3)[C@@H](C)CN([C@H](C)CO)C(=O)c2cc(NC(=O)Nc3ccc(C(F)(F)F)cc3)ccc2O1
  -0.066	.	-18	27
C[C@H](CO)N1C[C@H](C)[C@H](CN(C)C(=O)NC2CCCCC2)Oc2ccc(NS(=O)(=O)c3cccs3)cc2CC1=O
  0.22	2.3	2	7
Cc1ccc(S(=O)(=O)Nc2ccc3c(c2)C(=O)N([C@H](C)CO)C[C@H](C)[C@H](CN(C)Cc2ccc(-c4ccccc4)cc2)O3)cc1
  0.0034	2.8	22	35
Cc1noc(C)c1NC(=O)Nc1ccc2c(c1)CC(=O)N([C@H](C)CO)C[C@H](C)[C@H](CN(C)Cc1ccc(C(F)(F)F)cc1)O2
  -0.23	1.0	4	12
COc1ccc(S(=O)(=O)N(C)C[C@@H]2Oc3ccc(NS(=O)(=O)c4cccs4)cc3C(=O)N([C@@H](C)CO)C[C@H]2C)cc1
  -0.14	.	4	.
COc1ccc(NC(=O)N(C)C[C@H]2Oc3ccc(NC(=O)C4CC4)cc3C(=O)N([C@@H](C)CO)C[C@@H]2C)cc1
  -0.087	-0.1	-7	-8
O=C(COc1ccccc1)Nc1ccc2oc(-c3ccc(Cl)cc3Cl)nc2c1
  .	-4.4	-2	.
COc1ccc(NC(=O)Nc2cccc3c2O[C@H](CN(C)S(=O)(=O)c2ccccc2)[C@@H](C)CN([C@@H](C)CO)C3=O)cc1
  0.069	.	-16	18
COc1ccc(CN(C)C[C@H]2Oc3ccc(NS(=O)(=O)c4ccccc4)cc3CC(=O)N([C@H](C)CO)C[C@H]2C)cc1
  0.19	.	-5	-11
CC(C)NC(=O)N(C)C[C@H]1Oc2ccc(NC(=O)CCCN(C)C)cc2CC(=O)N([C@@H](C)CO)C[C@@H]1C
  -0.25	-0.9	-8	.
COc1ccc(NC(=O)Nc2ccc3c(c2)CC(=O)N([C@@H](C)CO)C[C@@H](C)[C@@H](CN(C)C(=O)NC(C)C)O3)cc1
  -0.019	-0.7	0	-35
C[C@@H]1CN([C@H](C)CO)C(=O)c2cccc(NS(=O)(=O)c3ccccc3)c2O[C@H]1CN(C)S(=O)(=O)c1ccccc1
  -0.5	.	-4	22
Cc1ccc(N(CC(=O)O)S(C)(=O)=O)cc1C
  .	1.2	-6	.
COc1ccc(NC(=O)N(C)C[C@@H]2Oc3c(cccc3N(C)C)C(=O)N([C@@H](C)CO)C[C@@H]2C)cc1
  0.19	.	-7	14
C[C@@H]1CN([C@@H](C)CO)C(=O)c2cccc(N(C)C)c2O[C@H]1CN(C)S(=O)(=O)c1ccc(Cl)cc1
  0.075	1.5	4	-10
Fc1ccc(C=Nc2ccc3ccccc3c2)cc1
  0.21	-1.0	7	-32
COc1ccc(NC(=O)Nc2ccc3c(c2)C(=O)N([C@H](C)CO)C[C@H](C)[C@@H](CN(C)C(=O)Nc2ccc4c(c2)OCO4)O3)cc1
  -0.29	0.9	-4	15
C[C@@H]1CN([C@H](C)CO)C(=O)c2cc(NC(=O)CCN3CCOCC3)ccc2O[C@H]1CN(C)Cc1ccc2c(c1)OCO2
  0.062	1.3	-1	-10
CC1CCC(C(C)C)C(NC(=O)c2cccc3ccccc23)C1 (stereo not drawn)
  -0.057	0.6	-8	6
COC(=O)c1ccccc1NC(=O)COc1ccc(I)cc1
  .	0.0	-20	.
Cc1cc(=O)[nH]c(SCCCOc2cccc(Br)c2)n1
  .	1.4	13	.
COc1ccc(CCNC(=O)c2cc(-c3cccnc3)nc3c(Cl)cccc23)cc1OC
  .	-2.9	15	.

Source: PubChem
